Cruzain Triton: cruzain (T. cruzi) inhibition with detergent. hit rate 0.43% among 200,000. Potency, µM, for the others: max response, negative = inhibition, hits mostly inhibitors. purified cruzain, Z-FR-AMC fluorescence, 0.01% Triton; active = well fitted curve in the direction sought with a large enough effect; inconclusive = small, poorly fitted or top-dose-only effect, or another doubt; inactive = no such curve, though single readings can be large; an effect the other way counts as inactive or inconclusive;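 note: plate controls were neutral wells for no effect and buffer without enzyme for full effect; nearly all actives have a fitted effect of over 40% in size; top concentration of the series not given in the record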
Target sequence (P25779 123-467 limits assumed): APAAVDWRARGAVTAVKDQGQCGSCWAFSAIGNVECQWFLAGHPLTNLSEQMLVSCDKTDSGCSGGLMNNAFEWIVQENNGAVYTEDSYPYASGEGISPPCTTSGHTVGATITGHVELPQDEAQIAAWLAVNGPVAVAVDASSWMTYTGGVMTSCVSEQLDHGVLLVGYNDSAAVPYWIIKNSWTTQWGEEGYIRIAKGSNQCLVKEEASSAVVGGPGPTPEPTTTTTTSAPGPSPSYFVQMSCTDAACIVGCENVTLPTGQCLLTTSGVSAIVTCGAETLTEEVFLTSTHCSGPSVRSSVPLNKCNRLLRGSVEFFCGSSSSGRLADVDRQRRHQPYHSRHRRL
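Z-FR-AMC hydrolysis (2 uM substrate) by cruzain (1.5 nM) monitored kinetically at ex 360/em 450 nm after 15 min room-temperature compound exposure; 0.01% Triton X-100, pH 5.5, 5 mM DTT.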
2A StopGo: FMDV 2A StopGo reporter, luciferase signal; Potency, µM (series often up to 57.9 µM), for inactives: at the top dose signal change, negative = less light; human cells with a luciferase reporter of 2A StopGo recoding; control for the full effect not named in the record; hit rate 1.2% among 410,000; active = well fitted falling curve with a large enough effect; inconclusive = small, poorly fitted or top-dose-only effect; inactive = no such curve, though single readings can be large or run the other way; tested in HEK293T cells; note: % is set by controls: 0 for no effect and ±100 for the full control effect; nearly all actives have a fitted effect of over 45% in size; luciferase light after 4 h
Cruzain noTriton: blocks cruzain activity in detergent-free assay | Potency, µM, without a hit: max response, negative = inhibition, usual class: inhibitors | hit rate 2.3% among 200,000 | P25779 | purified cruzain, Z-FR-AMC fluorescence, no detergent; active = well fitted curve in the direction sought with a large enough effect; inconclusive = small, poorly fitted or top-dose-only effect, or another doubt; inactive = no such curve, though single readings can be large; an effect the other way counts as inactive or inconclusive;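 note: plate controls were enzyme without inhibitor for no effect and buffer without enzyme for full effect; nearly all actives have a fitted effect of over 40% in size; top concentration of the series not given in the record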
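Detergent-free condition (0.00005% Triton X-100) in acetate buffer pH 5.5 with DTT. 1.5 nM enzyme and compound were pre-mixed 15 min, then 2 uM Z-FR-AMC substrate added; reaction progress from fluorescence change between first and third reads (60 s).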
Lassa entry inh: inhibitors of Lassa virus binding or cell entry. hit rate 1.2% among 300,000. Lassa virus pseudotype entry inhibition, cell reporter; control for the full effect not named in the record. Potency, µM (titrated, usually from 37.9 µM), for inactives: at the top dose activity change, negative = inhibition, hits mostly inhibitors; active means well fitted inhibition curve with a large enough effect; inconclusive means small, poorly fitted or top-dose-only effect, or effect the other way; inactive means flat fitted curve, though single readings scatter; tested in HEK293 cells; note: % is set by controls: 0 for no effect and ±100 for the full control effect; nearly all actives have a fitted effect of over 50% in size; luciferase read-out
RE007 growth inh: less growth of the S. pombe RE007 Vpr strain. S. pombe RE007 Vpr strain, BacTiter-Glo ATP luminescence, 24 h; control for the full effect not named in the record. Potency, µM (titrated, usually from 92.2 µM), for inactives: top-dose activity change, negative = less growth. hit rate 0.21% among 360,000. AID 651644; active = well fitted falling curve with a large enough effect; inconclusive = small, poorly fitted or top-dose-only effect; inactive = no such curve, though single readings can be large or run the other way;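 note: % is set by controls: 0 for no effect and ±100 for the full control effect; nearly all actives have a fitted effect of over 50% in size; the assay follows cell death caused by Vpr and the record does not say whether a fall means rescue or toxicity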
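Fission yeast strain RE007, carrying one chromosomally integrated HIV-1 vpr copy, was seeded at OD 0.01 in PMG+AL medium with 23 nL pinned compound. After 24 h at 30 °C and 99% humidity, viability was read by BacTiter-Glo luminescence.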
Marburg entry inh: blocks Marburg virus binding to or entry into cells; Marburg virus pseudotyped entry inhibition, cell reporter; control for the full effect not named in the record; about a third of the inactives were read at about 46 µM; Potency, µM (titrated, usually from 37.8 µM), for the others: at the top dose activity change, negative = inhibition, usual class: inhibitors; hit rate 1.8% among 300,000; active = well fitted inhibition curve with a large enough effect; inconclusive = small, poorly fitted or top-dose-only effect, or effect the other way; inactive = flat fitted curve, though single readings scatter; tested in HEK293 cells; about a fifth of its hits are not listed in these tables; note: % is set by controls: 0 for no effect and ±100 for the full control effect; luciferase read-out
NS1 function inh: influenza NS1 inhibition. S. cerevisiae slowed by influenza A NS1, growth recovery by OD600. Potency, µM (highest dose often 46.1 µM), for the others: at the highest dose activity, positive = more growth. hit rate 0.4% among 270,000; note: actives are rising curves; nearly all actives have a fitted effect of over 50% in size
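Read-out: OD600 growth recovery of NS1-expressing budding yeast. Cells grown overnight at 30C in -URA glucose medium, washed, resuspended and diluted 1:100 in 2% galactose assay medium, pH 6.0. Same strain lacking NS1 served as positive control.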
SARS PLpro yeast: blocks SARS-CoV papain-like protease in a yeast assay; hit rate 0.19% among 330,000; S. cerevisiae expressing SARS-CoV PLpro, growth rescue; control for the full effect not named in the record; AID 485353; Potency, µM (series often up to 32.9 µM), for the others: at the highest dose activity, positive = growth rescue; note: 0% is about no effect; nearly all actives have a fitted effect of over 55% in size; growth read by luminescence after 48 h
* hit, by the source's call; ? = inconclusive; / = no result given; & = joins results of further samples; [ ] = dose if it differs, or a comment. Unless noted, calls come from the whole dose curve; as a rule, active means well fitted rising curve with a large enough effect; inconclusive means small, poorly fitted or top-dose-only effect; inactive means no such curve, though single readings can be large or run the other way. Potency is the fitted concentration of half-maximal effect.

SMILES | Cruzain Triton | 2A StopGo | Cruzain noTriton | Lassa entry inh | RE007 growth inh | Marburg entry inh | NS1 function inh | SARS PLpro yeast
COc1cccc(CN(C)CC(=O)Nc2sc3c(c2C#N)CCC3)c1 | / | -26% | / | -10% | 19% | -3%[46.1 µM] | / | -6%
Cc1c(NC(=O)C(C)N2C(=O)NC3(CCC(C)CC3)C2=O)c(=O)n(-c2ccccc2)n1C (stereo unspecified) | / | 13% | / | -5% | -1% | 3%[46.1 µM] | -2% | 1%
Cc1nc(N2CCN(c3ccccn3)CC2)c2c(C)c(C(=O)Nc3c(C)cc(Br)cc3C)sc2n1 | / | -22% | / | / | -17% | / | 9% | 4%
O=C(/C=C/c1ccccc1)NCCSc1ccc(Cl)cc1 | -6.9% | -8% | 2% | ? | -8% | 1% | -22% | 0%
COc1cccc(-c2csc(N3CCN(C(=S)Nc4ccc(Cl)cc4)CC3)n2)c1 | 6.9% | / | 25µM* | -26% | 2% | ? | 29% | -8%
COc1ccc(NC(=O)C2CCN(c3cc(C)nc(-c4ccccc4)n3)CC2)cc1 | -3.1% | ? | -1% | ? | -21% | ? | -76% | -10%
CCCOc1ccc(C(CC(=O)O)NS(=O)(=O)c2ccc(NC(C)=O)cc2)cc1 (stereo unspecified) | 0.0% | -9% | -7% | 9% | -3% | 10% | 3% | -5%
Cc1ccc(CNC(=O)C2CCN(c3nn4c(=O)cc(C)nc4s3)CC2)cc1 | / | -17% | / | / | -5% | / | -4% | -3%
COc1ccc(N(CC(=O)NCCSc2ccccn2)S(=O)(=O)c2ccccc2)cc1Cl | / | -15% | / | ? | -4% | -27% | -14% | 1%
CCCN(CCC)S(=O)(=O)c1ccc(C(=O)Nc2nc3c(s2)CCc2ccccc2-3)cc1 | 1.3% | -25% | 7.9µM* | ? | 19% | ? | -5% | -7%
CN(CCc1ccccn1)Cc1ccc(Cl)cc1Cl | 2.0% | 9% | -11% | 5% | -7% | 9% | -1% | 1%
CCCCC(O)(C(NC=O)C(=O)OC)C(F)(F)F (stereo unspecified) | 4.2% | -19% | -8% | -10% | -17% | 1%[46.1 µM] | -28% | -2%
CCC1CCCCN1C(=O)c1cc2c(=O)n3cccc(C)c3nc2s1 (stereo unspecified) | / | 37%[activator] | / | 10%[46.1 µM] | -4% | ? | -7% | 3%
CCN(CC)C(=O)CN(c1cc2c(cc1OC)oc1ccccc12)S(=O)(=O)c1ccccc1 | -1.2% | 16% | ? | ? | 0% | 10µM* | 10% | /
O=C(NCCN1C(=O)S/C(=C/c2cccnc2)C1=O)C1=NN(c2ccccc2)C(=O)CC1 | / | -19% | / | / | -2% | 1%[46.1 µM] | / | 2%
CCOC(=O)Cn1c2c(c(=N)c3c1CCC3)CCCC2 | -1.6% | -15% | 3% | -19% | 1% | -3% | 9% | 17%
NC(=O)C1(Nc2ccccc2Cl)CCCC1 | / | -20% | / | -23% | -14% | 29% | / | /
NC(=O)c1cc(S(=O)(=O)Nc2ccccc2)cs1 | / | 77%[activator] | / | -11% | 3% | 5% | 0% | 0%
O=C1CCSc2c1ccc1ccccc21 | / | -14% | / | 3%[46.1 µM] | 4% | 4% | / | /
CCc1nc(N2CCNCC2)c(C#N)c2c1CSC(C)(C)C2 | 0.0% | -13% | -4% | 8% | 0% | ? | 6% | 8%
Cc1ccc2nc(NC(=O)c3nc(SCc4ccccc4C)ncc3Cl)sc2c1 | -1.6% | 6% | 4% | 11%[46.1 µM] | / | 1%[46.1 µM] | / | /
CCCn1c(CN2CCN(C(C)=O)CC2)nc2cc(S(=O)(=O)N(C)C)ccc21 | / | -10% | / | ? | 23% | -3%[46.1 µM] | 15% | 1%
COc1ccc(OCCNC(=O)c2ccccc2OCC(=O)Nc2ccc(NC(C)=O)cc2)cc1 | -0.8% | ? | 2% | ? | 16% | 7.1µM* | ? | -12%
CC(=O)Nc1ccc(NC(=O)c2c(-c3ccccc3)noc2C)cn1 | / | -16% | / | / | 5% | / | 9% | 0%
Cc1ccc(OCCN2CCN(CC(O)Cn3c4ccccc4c4ccccc43)CC2)cc1 (stereo unspecified) | 0.9% | / | 4% | / | / | / | -35% | -60%
CCc1ccc(-c2cc(C(F)(F)F)n3nc(C(=O)Nc4cnn(Cc5ccccc5C)c4)cc3n2)s1 | 1.8% | -3% | 14% | -10% | -4% | -26% | 11% | -2%
CC(C)(C)c1ccccc1OCCCCCn1ccnc1 | / | -28% | / | -9% | -10% | ? | -4% | -3%
COc1ccc(-n2c(Cc3cccn3C)nnc2SCC(=O)N2CCC(C)CC2)cc1 | -2.8% | 0% | 7% | 7% | -5% | -26%&-26% | ? | 6%
COc1ccc(OC)c(NS(=O)(=O)c2ccc3c(c2)CCC(=O)N3)c1 | 1.8% | -1% | -3% | -1% | -12% | 1% | ? | -1%
CCc1cc(=O)[nH]c(SCc2cccnc2)n1 | / | -16% | / | / | -13% | / | -2% | -2%
COc1ccc(-c2[nH]ncc2C(=O)NCc2cccc(F)c2)cc1 | -1.5% | -21% | -1% | / | / | 0%[46.1 µM] | / | /
CCN(CC)S(=O)(=O)c1cc(NC(=O)CSc2nnc(-c3cccs3)o2)ccc1C | -3.0% | -17% | -5% | 2% | 0% | 1% | 3% | -11%
CCCCc1ccc(N=N/C(C(=O)Nc2ccc(NC(C)=O)cc2OC)=C(/C)O)cc1 | 10µM* | -29% | 15% | / | 1% | 0% | 21% | 2%
O=C(CCCc1nc(-c2ccccc2)no1)Nc1cccnc1 | -0.3% | 0% | 5% | -11% | 11% | ? | -17% | ?
O=S(=O)(c1ccc(Cl)cc1)N1CCCC1c1nc(-c2ccc(Cl)cc2)no1 (stereo unspecified) | -2.2% | -13% | 3% | 27% | 7% | -32% | 2% | 6%
CCOC(=O)c1c(NC(=O)CSc2nncs2)sc(C)c1-c1ccccc1 | -5.2% | ? | 3% | ? | -2% | ? | 22% | 4%
Cc1[nH]c(=O)c(C#N)c(C)c1CCC(=O)Nc1cc(S(C)(=O)=O)ccc1Cl | / | 10% | / | -2% | -11% | 10% | 9% | -3%
Cc1cccc(NS(=O)(=O)c2ccc3c(c2)Cc2cc(S(=O)(=O)Nc4cccc(C)c4C)ccc2-3)c1C | 0.6% | -5% | 4µM* | 2% | 8% | ? | 21% | -11%
CCc1ccc(NC(=O)COc2ccc(/C=C(/C#N)c3nc4ccccc4[nH]3)cc2OC)cc1 | -7.1% | ? | -30% | ? | -4% | ? | ? | 17%
CCCN(c1ccc(C(C)C)cc1)S(=O)(=O)c1c(C)noc1C | -1.6% | -21% | -10% | ? | 5% | ? | -7% | -6%

2 successive compounds out of the list so far, for reference:
SMILES | Cruzain Triton | 2A StopGo | Cruzain noTriton | Lassa entry inh | RE007 growth inh | Marburg entry inh | NS1 function inh | SARS PLpro yeast
Cc1ccc(OCCN2CCN(CC(O)Cn3c4ccccc4c4ccccc43)CC2)cc1 (stereo unspecified) | 0.9% | / | 4% | / | / | / | -35% | -60%
CCc1ccc(-c2cc(C(F)(F)F)n3nc(C(=O)Nc4cnn(Cc5ccccc5C)c4)cc3n2)s1 | 1.8% | -3% | 14% | -10% | -4% | -26% | 11% | -2%

Remaining list, next part.
SMILES | Cruzain Triton | 2A StopGo | Cruzain noTriton | Lassa entry inh | RE007 growth inh | Marburg entry inh | NS1 function inh | SARS PLpro yeast
CC(=O)Nc1ccc(Oc2cc(C#N)c(C#N)cc2N2CCOCC2)cc1 | 1.7% | -21% | 6% | -15% | 13% | 29% | ? | -2%
CCOC(=O)C1=C(N)OC2=C(C(=O)CCC2)C1c1cccnc1 (stereo unspecified) | -7.7% | -1% | -3% | 0% | -4% | ? | -1% | 5%
C=CCn1c(=O)c(C(=O)NCCc2ccccc2)c(O)c2ccccc21 | -4.2% | / | -5% | 4% | -2% | -19% | -14% | 3%
COc1ccc(C2C(C(=O)c3ccco3)=C(O)C(=O)N2CC2CCCO2)cc1 (stereo unspecified) | / | 1% | / | 20%[46.1 µM] | -3% | -3%[46.1 µM] | -2% | 0%
CN(C)CCNc1oc(COc2ccc(Cl)cc2Cl)nc1C#N | -6.2% | 17% | -5% | 10% | -9% | -17% | 4% | 1%
CCNC(=O)/C(=C\c1ccccc1)NC(=O)/C=C/c1ccccc1 | -0.8% | -16% | 8% | 11% | 1% | 13% | 2% | 9%
CCOC(=O)c1nnn(-c2nonc2N)c1-c1ccccc1 | 2.1% | 7% | 0% | 23% | -3% | 0% | 3% | 5%
CC(C)CCOc1ccc(Oc2nc(N(C)C)nc(N(C)C)n2)nn1 | -0.4% | -15% | -4% | -2%[46.1 µM] | / | 7%[46.1 µM] | / | /
O=C(O)CCCCn1c(SCC(=O)Nc2ccccc2C(F)(F)F)nc2ccsc2c1=O | 1.0%&-2.7% | 2%&-2% | 7%&2% | 22% | 15% | -4%&1%&1% | 1% | -20%
Cc1noc(C)c1CSc1cc(C)c2ccccc2n1 | -5.5% | / | 6% | -11% | -14% | -57% | -78% | ?
CCC(=C(c1ccc(OC)cc1)c1ccc(OC)cc1)c1cn(CC(O)CN2CCN(C)CC2)c2ccccc12 (stereo unspecified) | -4.4% | -21% | -20% | -18% | 8% | ? | 17% | -39%
CC1CCN(S(=O)(=O)c2ccc3c(c2)N(CC(=O)NCCCOC(C)C)C(=O)CO3)CC1 | -0.4% | 4%&-12% | -2% | 1%[46.1 µM] | 4% | -24%&-24%[46.1 µM] | ? | 15%
CN(CC(=O)Nc1c(Cl)cccc1Cl)C(=O)Cc1ccc2c(c1)CCC2 | / | ? | / | -25% | 21% | -11% | / | 6%
CC1(C)Cc2c(cnn2-c2cccc(F)c2)C(NC(=O)CN2CCCC2=O)C1 (stereo unspecified) | / | 6% | / | / | 9% | / | 18% | -2%
O=C(/C=C/c1ccccc1)NCC(=O)N/N=C/c1ccco1 | / | 4% | / | 1%[46.1 µM] | 15% | 21%[46.1 µM] | 0% | -2%
O=C(NNC(=O)c1sccc1-n1cccc1)Nc1ccccc1 | / | 10% | / | 8% | -12% | -20%[46.1 µM] | / | -1%
CCC(C)NC(=O)C(NS(=O)(=O)c1ccc2c(c1)c(=O)n(C)c(=O)n2C)c1ccccc1 (stereo unspecified) | 1.7% | -9% | 5% | / | -5% | / | -11% | -5%
